Compound activity deposited in PubChem by SRMLSC.
H5N1 antiviral = MDCK cell protection from H5N1 avian flu; inhibition, % at 50 µM; cytopathic effect, luminescence, 72 h; active compounds read high; no value below 0 was filed and about half of the inactive calls have no number; reference of the scale not given here; 0.07% of 96,000 active; in the data active means inhibition above about 25%
* marks the source's active call; other numbers are inactive results; i = inactive. Only part of the results is shown; rates above refer to the full screens.

SMILES	H5N1 antiviral
O=C(CCC(=O)NNC(=O)COc1ccccc1)NCc1ccccc1	i
CCCC(=O)c1ccc(N2CCN(S(=O)(=O)c3ccccc3)CC2)c(F)c1	0.6
COCc1cc(C)nc(SCC(=O)Nc2ccccc2C)c1C#N	i
CC(=O)N1CCN(Cc2nc3cc(NC(=O)c4ccccc4)ccc3n2C)CC1	i
Nc1cc(N)nc(SCCOc2ccccc2)n1	0.7
CCC(OC(=O)c1cc2sccc2n1C)C(=O)NCC1CCCO1 (stereo unspecified)	i
O=S(=O)(NCc1cccnc1)c1cc(Cl)ccc1Cl	0.3
COc1ccc(C(=O)Nc2nccs2)cc1OC	0.1
N#Cc1cc(-c2ccc(Cl)cc2)cnc1Sc1ccccc1	1.3
Cc1ccc(NC(=O)CSC2=C(C#N)C(c3ccc4c(c3)OCO4)C3=C(CCCC3=O)N2)c(C)c1 (stereo unspecified)	i
Nc1ccccc1-c1nnc(SCc2ccccc2Cl)[nH]c1=O	0.1
CCOC(=O)CNc1ncnc2nc[nH]c12	1.2
CCOC(=O)c1ccc(NS(=O)(=O)N2CCCCCC2)cc1	5.2
Cc1ccc(N(CC(=O)Nc2ccc3c(c2)OCCO3)S(=O)(=O)c2c(C)noc2C)cc1	i
CCOC(=O)c1nnn(-c2nonc2N)c1-c1cccc2ccccc12	0.3
Cc1c(Cl)cccc1N1C(=O)C2ON(c3ccccc3)C(c3cccnc3)C2C1=O (stereo unspecified)	i
CCC(=O)N1CCN(c2ccc(NC(=O)c3ccc(-c4ccccc4)cc3)cc2)CC1	0.6
N#Cc1ccccc1NC(=O)COC(=O)c1ccc2c(c1)OCCO2	i
Cc1ccc(-c2cc(C(=O)N3CCN(c4ncccn4)CC3)c3ccccc3n2)cc1	i
COc1cccc(NC(=O)C(NCC2CCCCC2)c2ccccc2)c1 (stereo unspecified)	0.8
CCn1c(CSc2nccn2C)nc2cc(C(=O)O)ccc21	2.0
Cc1ccc(S(=O)(=O)NCc2ccc(C(=O)N3CCN(c4ccccn4)CC3)cc2)cc1	0.6
O=C(NCc1cccc(C(F)(F)F)c1)C1CCN(c2ncccn2)CC1	i
O=C(Nc1ccc2oc(-c3ccncc3)nc2c1)c1c(F)c(F)c(F)c(F)c1F	0.1
Cc1cc(C)cc(N(C(=O)c2sc(C)nc2C)C(C(=O)NCc2ccco2)c2ccccc2)c1 (stereo unspecified)	0.5
C(=N\n1cnnc1)/c1ccc(OC2CSC2)cc1	i
O=C(CCS(=O)(=O)c1ccc(Cl)cc1)N1CCN(S(=O)(=O)c2cccs2)CC1	1.6
CCOC(=O)CC1=C(C(=O)OCC)C(c2ccc(OC)cc2OC)C(C#N)=C(N)O1 (stereo unspecified)	i
CCOc1ccc(/C=N/O)cc1	i
CC1(C)CC(=O)C2=C(C1)OC(N)=C(C#N)C21CCN(Cc2ccccc2)CC1	i
COc1ccc(C(=O)Nn2c(C3CCC3)nc3ccccc3c2=O)c(OC)c1	i
CCC(=O)Nc1cccc(-c2nnc(SCC(=O)c3ccccc3)n2C)c1	i
O=C(COc1ccc(Cl)cc1Cl)NC1CCSC1=O (stereo unspecified)	i
CCOc1ccc(NC(=O)C2CCN(S(=O)(=O)c3cccnc3)CC2)cc1	0.0
O=C(CCCc1ccccc1)N1CCc2ccccc21	i
N#Cc1ccc(Cn2cc(C(=O)c3ccco3)c3ccccc32)cc1	i
CCCc1nc(SCC(=O)NCc2ccco2)c2c(=O)n(C)c(=O)n(C)c2n1	9.6
COc1ccc(CCNc2c(N)n(Cc3ccccc3)c(=O)[nH]c2=O)cc1OC	3.4
O=C(C1CCCN1S(=O)(=O)c1cccc2cccnc12)N1CCc2ccccc21 (stereo unspecified)	4.4
O=C1CCCC(O)=C1C(C#Cc1ccccc1)C1=C(O)CCCC1=O	i
O=C(COC(=O)c1ccccc1Nc1ccccc1)c1ccccc1	i
CN1CCN(C(=O)c2cccc(S(=O)(=O)N3CCCCC3)c2)CC1	0.1
CS(=O)(=O)N(CC(=O)N1CCN(c2ccccc2F)CC1)c1cccc(C(F)(F)F)c1	i
CCOc1cc(S(=O)(=O)NCc2ccco2)c(OCC)cc1-n1cnnn1	5.0
O=C(CN1CCN(c2nc(-c3ccccc3)cs2)CC1)Nc1ccc2c(c1)OCO2	0.1
O=C(CC(c1ccccc1)c1cc(Br)ccc1O)NCc1ccco1 (stereo unspecified)	5.3
COc1ccccc1C(=O)NCc1ccc2c(c1)OCO2	0.3
O=C1OCC2=C1C(c1ccc(F)cc1)Sc1ccccc1N2 (stereo unspecified)	1.4

A different layout for part of the listing above:
SMILES: O=C(CC(c1ccccc1)c1cc(Br)ccc1O)NCc1ccco1 (stereo unspecified)
  H5N1 antiviral = 5.3

SMILES: CN1CCN(C(=O)c2cccc(S(=O)(=O)N3CCCCC3)c2)CC1
  H5N1 antiviral = 0.1

SMILES: O=C(COC(=O)c1ccccc1Nc1ccccc1)c1ccccc1
  H5N1 antiviral = i

SMILES: O=C(C1CCCN1S(=O)(=O)c1cccc2cccnc12)N1CCc2ccccc21 (stereo unspecified)
  H5N1 antiviral = 4.4

(list continues)
SMILES	H5N1 antiviral
Cc1ccc2c(c1)N(CCC(=O)NCCCOC(C)C)C(=O)C(C)O2 (stereo unspecified)	0.3
CCOC(=O)c1c(C)[nH]c(C(=O)Cn2c(=O)oc3ccccc32)c1C	i
CCNC(=S)NNC(=O)Nc1ccccc1	i
Cc1cc(C)nc(-n2nc(C)cc2NC(=O)c2cccc(S(=O)(=O)N3CCOCC3)c2)n1	i
CS(=O)(=O)N1CCC(C(=O)Nc2cc(C(F)(F)F)ccc2Cl)CC1	0.4
COc1ccc(-c2ccc(-c3nnc(Cc4ccc(OC)c(OC)c4)o3)cc2)cc1	i
CCN1CCCC1CNC(=O)c1cc(OC)c(OC)c(OC)c1 (stereo unspecified)	i
COc1ccc(Cl)cc1NC(=O)Nc1cccc([N+](=O)[O-])c1C	0.2
COc1cccc(-c2nn(-c3ccccc3)cc2C(=O)NCC(=O)O)c1	i
Cc1cccc(-n2c(O)c(C=Nc3ccccc3N)c(=O)[nH]c2=O)c1	i
Cc1cc(Cl)cc(Br)c1OCCNCC(C)O (stereo unspecified)	0.1
COc1nc(OC/C(N)=N/O)nc(N2CCOCC2)n1	i
COc1ccc(OC)c(N=C2C(=O)Nc3ccccc32)c1	0.4
COc1cc(C)nc(NS(=O)(=O)c2ccc(C)cc2)n1	1.0
CN(Cc1ccccc1)S(=O)(=O)c1cccs1	i
COc1ccc(OCC(=O)Nc2cc(-c3nn4c(C)nnc4s3)ccc2C)cc1	i
CN1c2ccccc2-c2nc3ccccc3n2C1c1ccncc1 (stereo unspecified)	0.3
COc1cc2c3c(c1OC)C1(C=CC(=O)C=C1)CC3N(C(=O)c1ccccc1)CC2 (stereo unspecified)	1.8
Cc1cccc(NC(=O)CCc2ccc(S(=O)(=O)NC3CCCCC3)cc2)c1	0.2
CN(Cc1ccc(OC(F)F)cc1)C(=O)c1ccc2nccnc2c1	0.8
O=C(c1cnc2n(c1=O)CCS2)N1CCc2ccccc21	i
CC(NC(=O)CN1CCN(c2ncccn2)CC1)c1ccc(F)cc1 (stereo unspecified)	i
CCCn1c(SCC(=O)c2ccc(CC)cc2)n[nH]c1=O	1.1
Oc1cc(Cc2ccccc2)cnc1CN1CCOCC1	0.2
Nc1c(C(=O)NCc2cccnc2)sc(=S)n1-c1ccccc1	0.1
CCOC(=O)c1ccc(NC(=O)NS(=O)(=O)c2ccc(C)cc2)cc1	i
Cc1nc2cc(NC(=O)NCc3ccc4c(c3)OCO4)ccc2o1	i
O=C(NCC1COCCO1)C1CCN(S(=O)(=O)c2ccccc2)CC1 (stereo unspecified)	0.1
CCOC(=O)Cn1cc(C(=O)C2CC2)c2ccccc21	0.4
CNc1nc2c(c(=O)[nH]c(=O)n2C)n1CCOC	i
CC(C)c1nc2sc3c(SCC(=O)NCc4ccco4)ncnc3c2c2c1CCC2	5.4
CCOCCCNC(=O)CN(Cc1ccc(Cl)cc1)S(C)(=O)=O	i
Cc1cc2c(cc(C(=O)NCc3cccnc3)n2Cc2ccc(Cl)cc2)o1	i
CCOC(=O)C(/C=N/c1cc(C)nn1-c1ccccc1)=C(\C)O	i
COc1ccc(N2C(=O)CC(Sc3nccc(C)n3)C2=O)cc1 (stereo unspecified)	0.1
CC1CN(C(=O)CN2C(=O)c3ccccc3C2=O)CC(C)O1 (stereo unspecified)	1.1

6 entries picked at random from the list so far:
SMILES	H5N1 antiviral
CCOC(=O)C(/C=N/c1cc(C)nn1-c1ccccc1)=C(\C)O	i
Nc1c(C(=O)NCc2cccnc2)sc(=S)n1-c1ccccc1	0.1
Cc1cc2c(cc(C(=O)NCc3cccnc3)n2Cc2ccc(Cl)cc2)o1	i
CCOCCCNC(=O)CN(Cc1ccc(Cl)cc1)S(C)(=O)=O	i
O=C(NCC1COCCO1)C1CCN(S(=O)(=O)c2ccccc2)CC1 (stereo unspecified)	0.1
COc1ccc(N2C(=O)CC(Sc3nccc(C)n3)C2=O)cc1 (stereo unspecified)	0.1

(continued)
SMILES	H5N1 antiviral
COc1cccc(CNc2nc3nc(C)c(Cl)c(C)n3n2)c1	0.2
Nc1c(S(=O)(=O)c2ccccc2)c2nc3ccccc3nc2n1/N=C/c1ccco1	i
CC(C)C(=O)N1CCN(CCN=CC2=C(O)CC(c3ccco3)CC2=O)CC1 (stereo unspecified)	i
CCN1C(=O)c2cccc3c(S(=O)(=O)NCc4ccccn4)ccc1c23	1.1
O=C(O)c1cccc(N2CCCC2=O)c1	i
Cc1cc(=O)[nH]c(SCC(=O)Nc2ccc(S(=O)(=O)N3CCOCC3)cc2)n1	i
CCCN=C(Nc1ccc(Cl)cc1)c1cccnc1	0.2
Cc1cc(=O)[nH]c(SCC(=O)C23CC4CC(CC(C4)C2)C3)c1C#N	0.1
Cn1cnnc1SCC(=O)Nc1sc2c(c1C#N)CCCCC2	0.9
CCOc1ccc(NC(=O)c2cccc(OC(=S)N3CCC(C)CC3)c2)cc1	i
CCOC(=O)c1c(C)[nH]c(C(=O)CSc2ccccc2)c1C	i
Oc1ccc(-c2onc(C(F)(F)F)c2-c2cscn2)c(O)c1	i
O=C1c2ccccc2C(=O)N1c1ncccn1	i
CCc1ccc(NS(=O)(=O)c2cccs2)cc1	i
CCc1nnc(NC(=O)c2ccc(S(=O)(=O)N(CCOC)CCOC)cc2)s1	0.9
COCCCNC(=O)CNC(=S)N(Cc1ccc(F)cc1)C1CCCCC1	i
COc1ccc2cc3cc(C(=O)NCc4ccccn4)oc3nc2c1	i
O=C(CSc1n[nH]c(-c2ccc(Cl)cc2Cl)n1)Nc1ccccn1	0.9
COC(=O)CSc1nnc(-c2ccc3c(c2)OCO3)n1C	i
COc1ccc(C(=O)n2nc(-c3ccccc3)nc2N)cc1OC	2.6
CC(=O)N1N=C(c2ccncc2)OC12CCCC2	i
COc1ccc(S(=O)(=O)Nc2ccc(C)cc2)cc1OC	i
Cc1ccc(S(=O)(=O)/N=C(/Nc2c(C)n(C)n(-c3ccccc3)c2=O)c2ccc(Cl)cc2)cc1	2.0
Cc1cccc(NC2=NC(C)(C)N=C(N)N2)c1C	i
CCN(CCO)c1cc(Cl)nc(SC)n1	2.4
CCCCNC(=O)OCCNC(=O)Oc1cccc(C)c1	1.4
O=c1c([N+](=O)[O-])cc(C(F)(F)F)cn1Cc1cccc(Cl)c1	0.2
Cc1ccc(C(=O)NCc2ccc(N3CCN(C(=O)OC(C)(C)C)CC3)cc2)cc1	3.1
O=C(Nc1nnc(C2CC2)s1)c1ccc(S(=O)(=O)c2ccccc2)cc1	0.5
O=c1c2ccccc2c(C=Nc2cccc(O)c2)c(O)n1-c1ccc2c(c1)OCO2	i
CC1=C(C#N)C2C(/C1=N/O)C2(C)C (stereo unspecified)	0.3
CCCCn1nnnc1SCC(=O)N1CCN(C(=O)c2ccco2)CC1	1.6
CCOc1ccc(C2OC34CCCCC3C(C#N)(C#N)C2(C#N)C(=N)O4)cc1OC (stereo unspecified)	0.9
O=C(Cc1csc(N2CCOCC2)n1)N/N=C/c1cccc(O)c1	i
COCCNC(=O)c1c(N)n(CCC(C)C)c2nc3ccccc3nc12	i
Cc1ccc2oc(=O)c3cnn(CC(=O)N(CCC(C)C)Cc4ccco4)c3c2c1	0.8
NC(=O)c1cnn2c1NC(c1ccc(F)cc1)CC2C(F)(F)F (stereo unspecified)	0.4
COC(=O)c1[nH]c2cccc(OC)c2c1NC(=O)CN1CCN(c2cccc(OC)c2)C(C)C1 (stereo unspecified)	0.7
O=C(c1ccc(Cl)cc1)c1cnc(-c2ccc(Cl)cc2)s1	0.6
Cc1cccc(C)c1NC(=O)C1CC(=O)N(C(C)C)C1 (stereo unspecified)	i
CCCNC(=O)Cc1cc(=O)[nH]c(=O)[nH]1	i
Clc1ncc(CN2CCN(Cc3ccccc3)CC2)s1	0.8
CSCC[C@H](Nc1ncnc2sc(C)c(C)c12)C(=O)O	0.1
CC1(C(=O)O)CCC(C(=O)Nc2ccc3ccccc3c2)C1(C)C (stereo unspecified)	i
CC(=O)/C(=C/N(C)C)Sc1ccc(C)cc1	i
CC(=O)Nc1ccc(S(=O)(=O)Nc2nc3ccccc3nc2N2CCCCCC2)cc1	2.8
CSc1nc(C2CC2)cc(-c2cccs2)c1C#N	i
O=C(CSc1nnc(NC(=O)CN2CCOCC2)s1)Nc1ccccc1	i
CCOc1ccc(/C=N/n2cnnc2)cc1	i
Cc1c(C(=O)NCc2cccs2)oc2ccc(Br)cc12	i
Cc1ccc(Cl)cc1N1CCN(CC(=O)Nc2ccc3[nH]c(=O)[nH]c3c2)CC1	i
CCCCOC1(c2ccccc2)OC(=O)c2ccccc21 (stereo unspecified)	i
CCn1c(/C=C/c2cccc([N+](=O)[O-])c2)nc2ccccc2c1=O	4.6
COc1ccccc1C(=O)O/N=C(\N)c1ccc(Cl)cc1	i

An excerpt of these results, with bars between the fields.
SMILES | H5N1 antiviral
O=C(CSc1nnc(NC(=O)CN2CCOCC2)s1)Nc1ccccc1 | i
CCOc1ccc(/C=N/n2cnnc2)cc1 | i
Cc1c(C(=O)NCc2cccs2)oc2ccc(Br)cc12 | i
Cc1ccc(Cl)cc1N1CCN(CC(=O)Nc2ccc3[nH]c(=O)[nH]c3c2)CC1 | i
CCCCOC1(c2ccccc2)OC(=O)c2ccccc21 (stereo unspecified) | i
